Ba CapD inh – CapD enzyme inhibition; 140,000 tested, 0.23% active; AID 492967; purified CapD enzyme, fluorescence intensity read-out; hits give low values; some hits fall short of the stated cut; z-score (test concentration not listed);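 active = z-score under -4 in either of two replicates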;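 note: stock transfer was 100 nL into about 40 µL; score is relative to mean and spread of the plate; one replicate is shown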
AID504770 – E. coli YBA685 growth inhibition, screen for V. cholerae RctB inhibitors. E. coli YBA685 rctB-dependent plasmid, OD600 growth, 3 h; hits give low values. z-score (test concentration not listed). 130,000 tested, 0.27% active. AID 504770;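 active = z-score under -2 on both plates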;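 note: wells of about 30 µL received 100 nL stock; score is relative to mean and SD of the test wells; the first replicate is given; strong numbers were not always called active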
Numbers without * were called inactive; · = no result given. These rows are one share of the data; rates above refer to the full screens.

SMILES	Ba CapD inh	AID504770
O=C1C(=Cc2cn(CC(=O)N3CCOCC3)c3ccccc23)C(=O)c2ccccc21	0.7	-0.25
O=C(NCc1ccco1)c1ccc(N2CC3CC(C2)c2cccc(=O)n2C3)c(NS(=O)(=O)c2ccc(Cl)cc2)c1 (configuration not stated)	-0.64	·
Cc1cccc(N2CCN(Cc3ccccc3F)CC2)c1C	-0.29	1.3
Cc1ccccc1C(=O)c1cccn1CC(=O)NC1CCCC(C)C1C (configuration not stated)	-0.28	0.2
Cc1ccccc1Cn1c2ccccc2c2cnn(CC(=O)NC(C)C)c(=O)c21	4.3	-0.15
Cn1c(SCCN2CCCC2)nnc1C1CCN(S(=O)(=O)c2cccc(F)c2)CC1	·	0.35
CC(O)c1nc2ccccc2n1C1CCCCC1 (configuration not stated)	0.25	-0.65
O=c1[nH]cc(S(=O)(=O)Nc2ccccc2)c(=O)[nH]1	·	0.4
N#CCC1CCCO1 (configuration not stated)	·	-0.15
COC(=O)CN1C(=O)C2(C(C#N)=C(N)Oc3c2c(=O)oc2ccccc32)c2ccccc21 (configuration not stated)	-0.59	·
CC(C)CNCC(=O)N(C1CCCCC1)C1CCCCC1	·	1.7
CCc1ccc(C(=O)N2CCCC2)s1	-0.64	1.4
CC(=O)Oc1ccc(/C=C2\Oc3ccc4c(C)cc(=O)oc4c3C2=O)cc1	-0.3	·
Cc1ccc(C)c(NC(=O)C23CC4CC(CC(O)(C4)C2)C3)c1	·	-1.3
C=CCn1c(C)nnc1SCC(=O)NCC12CC3CC(CC(C3)C1)C2	·	2.2
Cc1cc(C(=O)Nc2ccc3c(c2)-c2ccccc2C3)no1	·	-0.15
COc1cc(C=Nc2ccc(C)c(Cl)c2)cc(OC)c1OC	1.4	·
OC(Cc1ccccc1)(c1ccccc1)c1ccccc1N=Cc1ccc2c(c1)OCO2 (configuration not stated)	-1.1	-1
COC(=O)c1ccccc1NC(=S)Nc1ccccc1	5.9	·
NC(=O)/C=C/C(=O)Nc1ccccc1	-0.3	-1.1
Cc1cc2nc(S(=O)(=O)Cc3cccc(C(F)(F)F)c3)[nH]c2cc1C	0.13	-0.45
Cc1cc2nc3s/c(=C\c4ccc(OC(=O)N5CCOCC5)cc4)c(=O)n3c2cc1C	0.27	·
O=C(NCC1CCCCC1)c1ccc(F)c(S(=O)(=O)N2CCOCC2)c1	·	-0.45
CCn1c(COc2ccccc2)nc2ccccc21	0.28	-0.2
COC(=O)c1ccc(Oc2nc(OC)nc(N(C)C)n2)cc1	15	-0.45

Gathered by group, those above containing an aryl thioether with sulfur outside any ring
SMILES	Ba CapD inh	AID504770
Cn1c(SCCN2CCCC2)nnc1C1CCN(S(=O)(=O)c2cccc(F)c2)CC1	·	0.35
C=CCn1c(C)nnc1SCC(=O)NCC12CC3CC(CC(C3)C1)C2	·	2.2

Going on with the list:
SMILES	Ba CapD inh	AID504770
Nc1ccccc1C(=O)NCC(=O)O	·	0.1
COc1cc(CCC(O)c2ccc(C)cc2)cc(OC)c1OC (configuration not stated)	-0.76	-0.75
CCN(CC)CCN1C(=O)c2c(C)nc3ccc(Br)cc3c2C1=O	-0.12	·
NC(=O)/C(=N\OC(=O)c1ccco1)c1nc(-c2ccc(Br)cc2)cs1	·	-0.6
COc1ccc(C(=O)C2=NN(C(C)=O)CC2c2ccco2)cc1 (configuration not stated)	·	0.2
O=C(Nc1ccccc1)c1cc(=O)[nH]c2ccccc12	0.4	-0.45
O=C(CO)Nc1ccc2c(c1)OCCO2	·	0.2
COc1cccc(CN(C)C(=O)c2ccc3ccccc3n2)c1OC	·	-1.1
CCOCc1cc(C)[nH]n1	·	-0.7
CCOC(=O)N1c2ccccc2CC1C (configuration not stated)	-0.43	2.8
CC(=O)OCc1cc(/C=N/N(C(C)=O)c2ccccc2)nn1-c1ccccc1	0.24	·
O=C(c1ccco1)N1CCN(c2c3c(nc4nncn24)CCC3)CC1	-2.6	-0.15
FC(F)(F)c1cc(-c2ccccc2)nc(NCC2CCCO2)n1 (configuration not stated)	28	0.65
O=C(CCCN1C(=O)S/C(=C/c2ccccc2)C1=S)NC12CC3CC(CC(C3)C1)C2	0.14	-0.5
COc1ccc(CC(=O)Nc2cccc(-c3nnc(-c4ccco4)o3)c2)cc1	-1	0.3
O=S(=O)(c1ccc(F)cc1F)N1CCC(Cc2ccccc2)CC1	0.5	·
O/N=C/c1cc(Br)cs1	-0.27	-0.8
CCc1ccc(NC(=O)CSc2nc(=O)n(CCN3CCOCC3)c3c2CCC3)cc1	·	-1.1
COCCNC(=S)N1CCC(NC(C)=O)CC1	·	-0.65
O=C(Cn1cnc2sc(-c3ccccc3)cc2c1=O)c1cccs1	0.44	0.3
NC(=S)c1cc2ccc(O)cc2oc1=O	-3.3	-1.6
CC(C)(C)C(=O)C(O)C(C)(C)C (configuration not stated)	·	1.6
COc1ccccc1Nc1nc(-c2ccc([N+](=O)[O-])cc2)nc2ccccc12	-1.1	·
COC(=O)c1ccccc1NC(=O)c1cccc(CSc2nnc(C)s2)c1	0.51	·
CCn1c(=O)cc(SCC(=O)Nc2cccnc2)c2ccccc21	-0.33	-0.3

Fetched by compound from above:
SMILES	Ba CapD inh	AID504770
CCN(CC)CCN1C(=O)c2c(C)nc3ccc(Br)cc3c2C1=O	-0.12	·
CCn1c(=O)cc(SCC(=O)Nc2cccnc2)c2ccccc21	-0.33	-0.3
O=C(c1ccco1)N1CCN(c2c3c(nc4nncn24)CCC3)CC1	-2.6	-0.15
COc1cccc(CN(C)C(=O)c2ccc3ccccc3n2)c1OC	·	-1.1

Additional structures follow:
SMILES	Ba CapD inh	AID504770
O=C(Nc1cccc([N+](=O)[O-])c1)c1ccc(Br)c(S(=O)(=O)N2CCC(C(=O)O)CC2)c1	-0.2	·
CCCCC1(CC(=O)N2CCCCC2)C(=O)N(c2ccccc2)N(c2ccccc2)C1=O	0.78	-0.3
CON(C)S(=O)(=O)c1cc(C(=O)OC(C)C(=O)Nc2ccc(N3CCOCC3)cc2)ccc1Cl (configuration not stated)	·	1.6
COCCNC(=O)c1ccc(CS(=O)c2cccc(C)c2)o1 (configuration not stated)	-0.1	0.25
COc1ccc(C(C)=O)cc1CSc1nc2ccccc2c(=O)n1CCCC(=O)NCCCN1CCCC1=O	-0.14	·
CCNc1nc(NCC)nc(SCCOc2ccc(Br)cc2)n1	0.41	-0.35
O=C1NNC(SCc2ccc(Br)cc2)=Nc2ccccc21	69	0.85
CCOC(=O)c1c(S(=O)(=O)N2CCCC2)c(C)n(C)c1C	-0.07	-0.8
COc1ccc(NC(=O)c2cc(=O)c3ccccc3o2)cc1	0.075	1
COc1ccc(CNC(C(=O)NC(N)=O)C(C)C)cc1OC (configuration not stated)	·	0.45
C=CCSc1nnc(NC(=O)c2cn(-c3ccccc3)nc2-c2ccccc2)s1	·	-0.45
Cc1csc(=Nc2ccc(S(=O)(=O)N3CCOCC3)cc2)n1Cc1ccco1	·	1.1
C=CCSc1nnc(Cc2c(C)[nH]c3ccccc23)o1	-0.94	-1.5
Cc1ccc(C)c(S(=O)(=O)N2CCC(c3nc4c(nnn4Cc4ccc(F)cc4)c(=O)[nH]3)CC2)c1	-1	-0.6
COc1ccc(-c2ccc(=O)[nH]n2)cc1	·	1.8
CN(C)/C=C/C(=O)c1ccc(S(=O)(=O)c2ccccc2)cc1	-1.3	-0.1
CC/C(=N\OC(=O)Nc1ccccc1)c1ccc(-c2ccccc2F)cc1	0.14	·
O=C(CSc1cn(CCNC(=O)c2cccs2)c2ccccc12)NC1CCCC1	·	0.15
C[N+]1(CCOS(=O)C23CC4CC(CC(C4)C2)C3)CCOCC1 (configuration not stated)	0.27	0.85
c1cncc(C2N3CCCN2CC3)c1 (configuration not stated)	0.095	0.15
CCN1C(=O)CC(NCc2ccc3c(c2)OCO3)C1=O (configuration not stated)	-0.49	1.9
CCCN(CCC)C(=O)Cn1nc(CC)n2c(cc3sc(C)cc32)c1=O	-0.41	0.8
COc1ccc(CCNC(=O)CCn2c(SCC(=O)NCC3CCCO3)nc3ccccc3c2=O)cc1OC (configuration not stated)	0.43	·
O=S(=O)(c1ccccc1)n1c(C(O)c2cccs2)cc2cccnc21 (configuration not stated)	-0.59	·
Cc1c(C(=O)Nc2ccncc2)cc(-c2ccccc2)n1CCCN1CCOCC1	0.9	0.25

New compounds follow
SMILES	Ba CapD inh	AID504770
CCC(C)OC(=O)C1=C(C)NC2=C(C(=O)CC(c3ccc(OC)c(OC)c3)C2)C1c1ccc(C)o1 (configuration not stated)	11	-0.05
Cc1cc(-c2csc(-c3ccccn3)n2)c(C)n1Cc1ccco1	·	1.5
COC(=O)c1ccc(C(c2c(N)n(CC(C)C)c(=O)[nH]c2=O)N2CCN(S(=O)(=O)c3ccc(C)cc3)CC2)cc1 (configuration not stated)	·	0.75
CSc1nc(-c2ccncc2)nc(N)c1C#N	0.18	-0.05
COc1ccc2c(c1OC)C(=O)N1c3ccccc3N=C(c3ccc(Br)cc3)CC21 (configuration not stated)	-0.3	1.4
COc1cccc(-c2ncc(-c3ccccc3)o2)c1	80	1.4
CCC(C)NC(=O)C1CCC(CNS(=O)(=O)c2ccccc2)CC1 (configuration not stated)	-0.25	0.35
O=C(Cn1cnc(S(=O)(=O)N2CCCCC2)c1)N1CCC(Cc2ccccc2)CC1	-0.28	0
COc1cccc(NS(=O)(=O)c2ccc3[nH]cc(C(=O)N(C)Cc4ccccc4)c(=O)c3c2)c1	-0.2	0.75
COc1ccc(C2(O)CN(c3cccc(C)c3C)C3=[N+]2CCCS3)cc1OC (configuration not stated)	0.14	·
O=C(Nc1c[nH]c(=O)[nH]c1=O)c1ccc2c(c1)C(=O)N(c1ccc(C(=O)c3ccccc3)cc1)C2=O	-0.23	0.3
CC(C)(C)c1cc(C(F)(F)F)c2c(N)c(C(=O)NC3CC3)sc2n1	-0.2	0.45
CCn1c(-c2cc(OC)ccc2OC)cs/c1=N\N=C\c1ccc(O)c(OC)c1	·	1.1
CCOC(=O)/C(C#N)=C1\CCCc2cc(OC)ccc21	4.5	-0.95
CCOC(=O)C1=C(C)N=c2s/c(=C\c3ccc(OCC(=O)O)c(OC)c3)c(=O)n2C1c1ccc(OC)cc1 (configuration not stated)	0.11	·
CN(C1CCCCC1)S(=O)(=O)N1CCCC(C(=O)O)C1 (configuration not stated)	0.44	-0.65
CC1(C)c2ccccc2N(c2ccccc2)C12C=Cc1cc(Br)cc([N+](=O)[O-])c1O2 (configuration not stated)	-0.38	·
CCc1ccc2ncc(S(=O)(=O)c3ccccc3)c(N3CCCC3)c2c1	0.58	0.2
N#Cc1ccccc1CO/N=C(\N)c1nonc1N	0.17	-0.7
O=C(c1ccc(Cl)cc1)N1CCN(c2cccc3[nH]ccc23)CC1	0.31	0.55
CCc1ccc(-c2nnc3ccc4ccccc4n23)cc1	-0.98	·
CCN1/C(=C\C=C\c2n(CC)c3cc([N+](C)(C)C)ccc3[n+]2CC)N(CC)c2cc([N+](C)(C)C)ccc21	-0.3	·
CC(C)CC(=O)CC1(O)C(=O)Nc2ccccc21 (configuration not stated)	0.18	-0.7
CCOCCOC(=O)C(C)Oc1ccc2c(=O)c(-c3ccc(OC)c(OC)c3)c(C(F)(F)F)oc2c1 (configuration not stated)	-0.18	·
NC(=O)CSc1nnc(C2CC2)n1Cc1ccccc1	·	-0.05

Entries above containing a CF3 group:
SMILES	Ba CapD inh	AID504770
Cc1cc2nc(S(=O)(=O)Cc3cccc(C(F)(F)F)c3)[nH]c2cc1C	0.13	-0.45
FC(F)(F)c1cc(-c2ccccc2)nc(NCC2CCCO2)n1 (configuration not stated)	28	0.65
CC(C)(C)c1cc(C(F)(F)F)c2c(N)c(C(=O)NC3CC3)sc2n1	-0.2	0.45
CCOCCOC(=O)C(C)Oc1ccc2c(=O)c(-c3ccc(OC)c(OC)c3)c(C(F)(F)F)oc2c1 (configuration not stated)	-0.18	·

Looked up above.
Reading of CCOCCOC(=O)C(C)Oc1ccc2c(=O)c(-c3ccc(OC)c(OC)c3)c(C(F)(F)F)oc2c1 (configuration not stated) under Ba CapD inh: -0.18
Reading of CON(C)S(=O)(=O)c1cc(C(=O)OC(C)C(=O)Nc2ccc(N3CCOCC3)cc2)ccc1Cl (configuration not stated) under AID504770: 1.6

The list goes on:
SMILES	Ba CapD inh	AID504770
CCOC(=O)C1CCCN(S(=O)(=O)c2c(F)cccc2F)C1 (configuration not stated)	0.21	·
CCCN(CCC)S(=O)(=O)c1ccc(C(=O)Nc2nc3c(OCC)cccc3s2)cc1	0.08	·
CN1c2ccsc2/C(=N/NC(=O)c2ccc(F)cc2)CS1(=O)=O	4	·
CC(=O)Nc1ccc(S(=O)(=O)N2CCN(c3nc4ccccc4s3)CC2)cc1	·	0
COC(=O)CSC(=S)N1C(C)CCCC1C (configuration not stated)	·	-0.6
Cc1cc(C)n(-c2ccc(N)cc2)n1	-0.005	-0.7
O=C1C2C3C=CC(C3)C2C(=O)N1CCO (configuration not stated)	-0.045	-1.1
CN(C)/C(=N\S(=O)(=O)c1ccccc1)c1ccccc1	·	0.95
Oc1oc(-c2ccco2)nc1/C=N/c1ncn[nH]1	-0.005	1.6
CC(=O)Nc1cc(S(=O)(=O)C(F)(F)F)ccc1C	0.15	-0.5
CCOc1ccccc1CN(Cc1ccco1)S(=O)(=O)c1ccc(Br)s1	-1.4	·
CCCNC(=O)CSc1nc2sc(C)c(C)c2c(=O)n1C1CCCC1	·	0.35
COc1cc(C2CC(=O)NC(SCC(=O)Nc3cccc(Cl)c3)=C2C#N)ccc1OCc1ccccc1 (configuration not stated)	-0.28	·
CSC1=NCCCN1C(=O)c1c(-c2ccccc2Cl)noc1C	-0.93	1.3
Cc1cccc(OCCC(=O)OCc2ncc(-c3ccccc3)o2)c1	·	1.1
CC1(C)CC(=O)C=C(SCC(=O)Nc2cc(C(F)(F)F)cc(C(F)(F)F)c2)S1	-0.48	-0.55
O=C(CN1C(=O)/C(=C\c2ccc(Cl)cc2)Sc2ccccc21)NCC1CCCO1 (configuration not stated)	0.69	-0.3
